Calb FLC – C. albicans growth modulation with fluconazole; 300,000 compounds, 0.57% hits; AID 1979; growth inhibition, % (test concentration not listed); C. albicans CaCi-2 (fluconazole-resistant clinical isolate) + fluconazole, Alamar Blue growth, 48 h;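 active = most replicates above 75%; inconclusive = exactly half above 75%; inactive = most below 75%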;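 also: all wells also contain fluconazole at 8 µg/ml as a sub-toxic cotreatment; 0% = median of DMSO wells and 100% = median of geldanamycin control wells; wells of about 8 µL received 7.5 nL stock; the first replicate is given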
MLL AF4-AF9 inh – MLL-AF4/AF9 protein interaction inhibition; AID 651704; AlphaScreen, biotin-AF4 peptide binding to FLAG-AF9; 350,000 compounds, 0.47% hits; inhibition, % at 10 µM;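 active = every replicate reaching a set inhibition limit, whatever the replicate mean, cut at about 25% in these data; inconclusive = mean inhibition reaches that limit but some replicates miss it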;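 also: 0% = plate neutral control median and 100% = total signal loss; the record names both 10 and 1 µM as test concentration; the first replicate is given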
Target sequence (P42568 whole entry, looked up): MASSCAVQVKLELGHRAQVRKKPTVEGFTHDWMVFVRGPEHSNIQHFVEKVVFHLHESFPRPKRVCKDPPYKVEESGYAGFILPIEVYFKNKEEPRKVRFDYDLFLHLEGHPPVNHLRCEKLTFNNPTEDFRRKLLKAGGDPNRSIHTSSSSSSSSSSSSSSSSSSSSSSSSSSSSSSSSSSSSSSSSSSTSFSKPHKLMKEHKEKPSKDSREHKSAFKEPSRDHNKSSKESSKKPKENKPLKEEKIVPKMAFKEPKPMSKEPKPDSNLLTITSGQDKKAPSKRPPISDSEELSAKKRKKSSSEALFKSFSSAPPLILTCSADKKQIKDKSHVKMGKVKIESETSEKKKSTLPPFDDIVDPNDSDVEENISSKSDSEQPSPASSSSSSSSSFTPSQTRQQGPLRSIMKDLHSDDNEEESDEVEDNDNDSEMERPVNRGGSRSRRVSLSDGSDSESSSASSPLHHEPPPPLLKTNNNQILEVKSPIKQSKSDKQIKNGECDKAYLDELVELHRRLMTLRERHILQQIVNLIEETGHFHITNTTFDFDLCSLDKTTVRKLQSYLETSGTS
FGF22 binding – shifts melting point of recombinant human FGF22. Q9HCT0. 340,000 compounds, 1.5% hits. recombinant FGF22 thermal shift, SYPRO orange fluorescence; percent of sucrose octasulfate shift, DMSO zero. AID 651658. calls only at 9.99 µM;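 active = melting point raised past a set limit in the mean and every replicate; inconclusive = no clear call; three in four hits are not shown here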
Target sequence (Q9HCT0 whole entry, looked up): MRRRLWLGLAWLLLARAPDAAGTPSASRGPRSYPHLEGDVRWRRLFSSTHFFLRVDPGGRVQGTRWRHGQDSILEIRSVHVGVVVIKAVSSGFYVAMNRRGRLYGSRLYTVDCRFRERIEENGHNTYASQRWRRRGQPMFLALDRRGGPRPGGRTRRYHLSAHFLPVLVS
RanGTP-Impb inh – inhibitors of RanGTP-importin-beta interaction, primary screen, biochemical, FRET, CFP-Ran, YFP-importin-beta, homogeneous; cell-free CFP-Ran/YFP-importin-beta FRET ratio; inhibition, % (test concentration not listed); 300,000 compounds, 1.1% hits; AID 2216;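 active = most replicates above 15%; inconclusive = exactly half above 15%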;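 also: 0% = DMSO wells and 100% = Ran loaded with GDP instead of GTP; wells of about 40 µL received 100 nL stock; the first replicate is given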
Beta cell apopt – blocks beta cell apoptosis | INS-1E cytokine-induced death, ATP luminescence, 48 h; percent of positive-control rescue, neutral wells zero | protection from apoptosis, % (no concentration beside the values) | 300,000 compounds, 0.8% hits | AID 435005;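 active = all replicates at 75% or more, or half of them and the mean; inconclusive = half reach 75% but not the mean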;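 also: 0% = cytokine-treated negative control wells and 100% = positive control rescue; higher means more ATP so stronger rescue from cytokine killing; wells of about 40 µL received 100 nL stock; the first replicate is given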
T cruzi repl – blocks replication of Trypanosoma cruzi; T. cruzi beta-gal in NIH3T3, luminescence, 90 h; inhibition, % (concentration not given with the values); 300,000 compounds, 1.4% hits;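 active = mean inhibition across valid replicates above about 55%, limit read from the data; inconclusive = mean below that limit but half or more replicates reach it; inactive = mean below it, under half of replicates reach it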;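 also: signal also drops with host cell toxicity which is not excluded here; 0% = plate median of DMSO wells and 100% = zero luminescence signal; higher percent means less beta-gal luminescence so fewer parasites; stock transfer was 50 nL into about 50 µL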
Ecoli rRNA inh – inhibitors of bacterial rRNA selective over humanized ribosomes. GFP signal change (wild-type ribosome), % (test concentration not listed). E. coli WT GFP vs humanized-ribosome RFP mutants, fluorescence, 24 h; hits give low values; DMSO median 0, no signal -100. 350,000 compounds, 1.6% hits;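 active = significant combined selectivity score with lowered wild-type GFP, culture density cut under 30%, mutant RFP and density less affected; inactive = any of these conditions unmet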; also: one replicate is shown; some compounds called inactive have numbers as strong as hits
ALR H2O2 inh – inhibitors of human sulfhydryl oxidase ALR; P55789; purified ALR, DTT oxidation, H2O2 HRP-luminol luminescence; inhibition, % (test concentration not listed); 290,000 compounds, 3.8% hits; AID 485317;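 active = mean and each replicate at 75% or more; inconclusive = only one of the two met; inactive = neither met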;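 also: stock transfer was 7.5 nL into about 7.5 µL; 0% = neutral wells and 100% = wells with inactivated enzyme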
Target sequence (P55789 whole entry, looked up): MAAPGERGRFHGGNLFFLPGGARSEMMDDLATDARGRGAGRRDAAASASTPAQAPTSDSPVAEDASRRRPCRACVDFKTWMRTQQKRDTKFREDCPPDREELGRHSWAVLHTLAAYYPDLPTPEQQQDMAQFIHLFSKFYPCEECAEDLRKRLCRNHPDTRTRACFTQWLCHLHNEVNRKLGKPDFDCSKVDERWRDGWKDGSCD
Ecoli rRNA inh OD600 – further read-out of Ecoli rRNA inh, marked with its call; OD600 change, %; measured here: OD600 growth;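 optical density of the mix in the first replicate; 0 = DMSO median and -100 = no signal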
Ecoli rRNA inh RFP – also measured in Ecoli rRNA inh; calls as there; RFP signal change, %; measured here: RFP humanized mutant strains;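 first replicate; 0 = DMSO median and -100 = no signal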
Active calls of the source: *; i = inactive; ? = inconclusive; nt = no result given. Only part of the results is shown. The share of hits here may be higher or lower than overall.

SMILES | Calb FLC | MLL AF4-AF9 inh | FGF22 binding | RanGTP-Impb inh | Beta cell apopt | T cruzi repl | Ecoli rRNA inh | Ecoli rRNA inh OD600 | Ecoli rRNA inh RFP | ALR H2O2 inh
Cn1nccc1/C=N\NC(=O)c1ccc(Cl)cc1 | -2 | 2.5 | i | -1.5 | 0 | 2 | 1 | 6 | -3.5 | 0
CCOc1cccc(=O)c2c(C)n(CC(=O)c3ccccc3)c(C)c12 | -1 | 5.2 | i | 4.8 | 3 | 3 | 4 | 8 | 6.8 | -23
O=c1c2cc(Cl)ccc2[nH]c(=S)n1Cc1ccco1 | 2 | nt | nt | -0.6 | 3 | -17 | nt | nt | nt | 5
Cc1cc(C)nc(N2CCN(c3ncnc4c3cnn4Cc3ccc(Cl)cc3Cl)CC2)n1 | -21 | nt | nt | 6.0 | 3 | 10 | nt | nt | nt | -6
Nc1nnc(SCc2nnc(-c3ccccc3)o2)s1 | 1 | -2.4 | i | -0.5 | -7 | -17 | -1 | 2 | 0.7 | -15
COc1cccc(NC(=O)CN(C)CC(=O)Nc2ccc(Cl)cc2[N+](=O)[O-])c1 | 16 | 4.7 | i | 0.9 | -10 | -3 | -16 | -4 | 1.2 | nt
N/C(Cc1ccc([N+](=O)[O-])cc1)=N\OC(=O)c1ccc(Br)cc1 | 27 | -0.9 | i | 1.2 | -2 | 15 | 7 | 7 | -6.2 | 0
Cc1ccc(C(=O)Nc2ccccc2Sc2ccccc2)cc1 | 15 | nt | nt | -2.9 | -3 | 18 | nt | nt | nt | 3
Cc1nc2c(Br)c(C)nn2c2c1CCC2 | 0 | -2.5 | i | -0.8 | -9 | -18 | -1 | 11 | -2.5 | -17
O=C(CN1CCN(c2ccccc2F)CC1)c1c[nH]c2ccccc12 | 3 | nt | nt | -3.4 | 0 | -14 | nt | nt | nt | -13
CC(C)c1ccc(NC2CCCN(C(=O)CCc3cn[nH]c3)C2)cc1 (centres undefined) | -14 | 2.0 | i | -3.6 | -1 | 15 | 3 | 1 | -2.3 | 98*
CS(=O)(=O)c1ccccc1C(=O)Nc1nc2ccccc2[nH]1 | 3 | -1.7 | i | -2.0 | 2 | -8 | 6 | 4 | 1.6 | -11
CCOc1ccc(/C(O)=C2\C(=O)C(=O)N(c3cc(C)on3)C2c2ccccc2OC)cc1 (centres undefined) | 0 | nt | nt | -1.0 | -5 | 5 | nt | nt | nt | 7
COc1ccccc1C(=O)COC(=O)c1ccccc1O | 9 | -0.4 | i | 5.0 | -2 | 6 | -1 | -12 | 0.5 | -14
Cc1ccc2[nH]c(C(=O)N/N=C/c3ccc([N+](=O)[O-])cc3)c(C)c2c1 | 2 | -2.9 | i | 1.5 | 4 | -29 | 1 | 21 | -1.7 | -3
CN(C)S(=O)(=O)c1cccc(NC(=O)COC(=O)c2cc3ccccc3oc2=O)c1 | -18 | -2.5 | i | 2.1 | -2 | -18 | 9 | 9 | -0.3 | 20
Cn1cc(C(=O)O)c(-c2ccc3c(c2)OCCCO3)n1 | -7 | 2.1 | i | -2.1 | -4 | -9 | 5 | 6 | -2.7 | -3
COc1cnn(-c2ccc(F)cc2)c(=O)c1Br | 9 | 1.5 | i | -0.8 | -3 | -9 | 21 | 11 | 0.3 | -5
CCCCCCCN1CCC(=O)N(CCO)CC1 | -1 | -10 | i | 1.3 | -6 | 20 | 11 | 0 | -8.8 | 6
CCOc1ccc(CSC(CC(=O)O)C(=O)O)cc1 (centres undefined) | 0 | nt | nt | 6.7 | -2 | -8 | nt | nt | nt | 98*
COc1cc(-c2cc(=O)c3c(O)c(OC)c(OC)cc3o2)cc(OC)c1O | 10 | 2.7 | i | 1.3 | nt | 4 | nt | nt | nt | 77*
COc1ccc(NC(=S)N(CCCN2CCOCC2)C(C)c2cc3ccccc3o2)cc1 (centres undefined) | -3 | 6.4 | i | 5.0 | -8 | -2 | -1 | -9 | 8.1 | nt
O=C(CSc1nnc(COc2ccccc2)o1)N1CCN(c2ccccc2)CC1 | 8 | nt | nt | -2.9 | 5 | 1 | nt | nt | nt | -5
COCCN(CCOC)c1cc(C)c(C#N)c2nc3ccccc3n12 | -5 | nt | nt | 57* | nt | -7 | nt | nt | nt | 2
Cn1nccc1C(=O)N1CCN(S(=O)(=O)c2ccc(Br)s2)CC1 | -9 | -0.8 | i | 3.4 | -3 | 0 | 0 | -1 | -2.5 | -10
OC(COc1ccc2ccccc2c1)CN1CCOCC1 (centres undefined) | 0 | -0.8 | i | -0.8 | 3 | -29 | 6 | 11 | -0.5 | -18
Cc1cc(Oc2cc(NN3CCCCC3)c([N+](=O)[O-])cc2[N+](=O)[O-])c(C(=O)c2ccccc2)cc1Cl | 10 | -3.2 | i | -11 | 10 | 11 | 5 | 13 | -1.4 | 61
COc1ccc(CNC(=O)CNS(=O)(=O)c2cccc(C#N)c2)cc1OC | -6 | -20 | i | 0.0 | 3 | -14 | 12 | 19 | -1.2 | 2
CCc1ccc(NC(=O)C2(c3ccccc3)CC2(Cl)Cl)cc1 (centres undefined) | -7 | nt | nt | 3.3 | 8 | 19 | nt | nt | nt | 2
C[C@H]1CN([C@@H](C)CO)C(=O)c2cc(NC(=O)NC3CCCCC3)ccc2O[C@H]1CN(C)C(=O)Nc1ccc(C(F)(F)F)cc1 | nt | -1.3 | i | nt | -7 | nt | -2 | 2 | 0.0 | -10
Cc1nn(CCC(=O)NCc2ccc(OC(C)C)cc2)c(=O)c2nn(-c3ccccc3)c(C)c12 | 5 | -1.9 | i | -3.3 | 2 | -5 | -1 | -5 | -3.7 | -4
O=C(NC(=S)Nc1nc2c(ccc3ccccc32)s1)c1cccs1 | -16 | nt | nt | -1.4 | 6 | 2 | nt | nt | nt | -14
Fc1ccc(C2CCCN2Cc2nc(CC3CC3)no2)cc1 (centres undefined) | -6 | 5.1 | i | -0.6 | -4 | 14 | -1 | 4 | -1.4 | -41
COc1cc(NC(=S)NCc2cccnc2)cc(OC)c1OC | 6 | -2.0 | i | 4.0 | 7 | -6 | -3 | -2 | 0.3 | 19
CCCSc1nnc(Nc2ccccc2C)s1 | -16 | nt | nt | 1.5 | 2 | 7 | nt | nt | nt | -15
Cc1c(C(=O)Nc2ccccc2F)cnn1-c1ccccc1 | -8 | 0.6 | i | 1.0 | 3 | -8 | -11 | -4 | -2.0 | -4
O=C(C1CC(=O)N(c2ccccc2)C1)N1CCN(c2ccc(F)cc2)CC1 (centres undefined) | 4 | -3.8 | i | 1.1 | -5 | -8 | 4 | 0 | -2.6 | 53
Cc1cc(C(=O)NCCC(C)C)c2ccccc2n1 | 2 | 7.1 | i | 1.9 | -9 | -5 | 5 | 4 | -0.7 | nt
COC(=O)Nc1nc(Sc2ncc(C(F)(F)F)cc2Cl)n[nH]1 | 11 | -0.9 | i | -11 | -12 | -19 | 8 | 17 | -1.4 | -4
COc1ccc(/C=N/Nc2cc(N3CCOCC3)ncn2)c(OC)c1 | 14 | -1.6 | i | -5.4 | 1 | -8 | 15 | 16 | 8.7 | -9
COC(=O)CSc1nc2nc(-c3cccs3)cc(C(F)(F)F)c2c(=O)[nH]1 | -9 | -1.0 | i | 3.9 | -4 | -21 | 7 | 15 | -0.5 | nt
O=C(c1cc2ccccc2oc1=O)N(Cc1ccccc1)Cc1ccc2c(c1)OCO2 | -6 | nt | nt | -1.7 | 3 | 14 | nt | nt | nt | -1
CO/N=C(\CCC(=O)O)c1cccs1 | 2 | 2.2 | i | 6.9 | 0 | -10 | 2 | 2 | -2.8 | 0
O=C(CSc1c(Cl)cccc1Cl)NC1CCCc2ccccc21 (centres undefined) | 26 | -4.9 | i | 3.6 | -4 | -9 | -9 | -10 | -2.1 | nt
Nc1nnc(CC(=O)N/N=C/c2cccc(OCCOc3ccccc3)c2)s1 | 6 | nt | nt | 4.7 | 5 | -20 | nt | nt | nt | 2
Cc1cc(C)nc(N(C#N)CC(=O)c2ccccc2)n1 | 3 | nt | nt | 1.3 | -6 | -8 | 9 | 1 | -4.5 | -6
CC(=O)N1CCN(C(=S)NCCc2ccccc2)CC1 | 4 | -2.5 | i | -0.5 | -2 | -9 | -4 | 4 | 0.2 | nt
O=C(COC(=O)CCS(=O)(=O)c1ccc(Cl)cc1)NCCc1ccc(Cl)cc1Cl | 4 | -1.9 | i | 0.0 | 0 | -3 | 12 | -2 | 1.1 | 9
CC(=O)Nc1cc(C(=O)N2CCN(C)CC2)ccc1S(=O)(=O)c1ccc(C)cc1 | -16 | nt | nt | nt | -4 | 3 | nt | nt | nt | -16
O=C(Nc1ccc2c(c1)OCO2)C1CCCCN1S(=O)(=O)c1ccc(F)cc1 (centres undefined) | -1 | nt | nt | -2.4 | 3 | -45 | nt | nt | nt | -28
CCC(=O)N1c2ccc(S(=O)(=O)CCC(=O)Nc3ccc(OC)cc3OC)cc2CC1C (centres undefined) | -38 | 4.7 | i | -2.3 | 5 | 12 | 1 | 9 | -0.5 | -11
Cc1ccc(C(C)C)c(OCC(O)CN(C)Cc2ccccc2)c1 (centres undefined) | -16 | 5.2 | i | ? | 11 | 24 | -9 | -30 | 2.2 | nt
COc1ccc(-c2csc(N3CCN(c4cc5c(cc4Cl)nc(-c4ccncc4)n5CCOCCO)CC3)n2)cc1 | 24 | -1.9 | i | 8.2 | -4 | 45 | 4 | 6 | -3.4 | -9
CO/N=C(\C(=O)O)c1csc(NN=C(C)C)n1 | 34 | -4.9 | i | 1.4 | -5 | 4 | -2 | -3 | -0.9 | 2
C[C@H](OC(=O)N1CCN(C(c2ccccc2)c2ccccc2)CC1)[C@@H]1O[C@@]2(C)CCC[C@H]1O2 | -8 | nt | i | 5.2 | nt | 10 | -9 | -19 | -4.7 | -3
COC(=O)[C@@]12CCCCN1[C@H](c1ccc(-c3ccccc3)cc1)[C@H]1C(=O)N(C)C(=O)[C@H]12 | 14 | 1.6 | i | 6.6 | 4 | 15 | 5 | 6 | -4.2 | nt
CCCc1nc2sc3c(c2c(=O)n1NC(=O)c1ccco1)CC(C)(C)OC3 | -18 | -2.0 | i | 0.0 | -4 | -10 | 6 | 0 | -2.1 | -3
Cc1ccc(C(=O)N2CCN(c3ncc(C(F)(F)F)cc3Cl)CC2)s1 | -1 | -0.5 | i | -1.7 | -3 | 18 | -1 | -23 | -0.4 | -3
Cc1[nH]nc(SCC(=O)N2CCCC2)c1[N+](=O)[O-] | 0 | 1.7 | nt | -2.8 | -9 | 1 | 6 | 8 | 5.4 | 0
CCC(=O)Nc1cc2[nH]c(=O)cc(C)c2cc1C | 3 | -1.4 | i | 6.6 | -3 | -4 | 10 | 15 | 3.2 | -30
COC(=O)c1nn(-c2ccc(-c3ccccc3)cc2)cc1O | -6 | nt | nt | -2.9 | -10 | -6 | nt | nt | nt | -16
O=C(COC(=O)c1ccc(Cl)nc1)Nc1ccc(N2CCCCC2)cc1 | nt | 1.4 | i | nt | -5 | nt | nt | nt | nt | 5

Screening data as filed in PubChem.
